Mtb H37Rv: M. tuberculosis H37Rv growth inhibitors, H37Rv strain (AID 1626); 220,000 compounds, 0.95% hits; inhibition, % at 10 µM, or IC50 in µM where a hit was titrated; M. tuberculosis H37Rv growth inhibition; higher % means a stronger effect;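 active = confirmed in a dose series; inconclusive = inhibition above 80% but not taken into the dose series; inactive = below 80% or under 30% at every dose of the series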;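 also: bacteria incubated seven days before Alamar blue readout; 0% = bacteria only wells and 100% = bacteria with antibiotic wells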
Mtb betalactam: beta-lactam sensitization of Mtb H37Rv, H37Rv. 330,000 compounds, 0.27% hits. inhibition, % at 25 µM. M. tuberculosis H37Rv growth with meropenem, percent inhibition; hits of this screen are not shown here;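 active = about 74% or more and at least 40 points above the plate without the antibiotic, then above 30% in a dose series; inconclusive = first-round hits that could not be retested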;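 also: growth measured after seven days incubation then overnight dye step; 0% = bacteria only wells and 100% = bacteria with antibiotic; twin plates without the antibiotic show which effects depend on it; some results filed as inactive read as strong as hits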
YopH PTP inh: YopH tyrosine phosphatase inhibitors, primary screen, biochemical, fluorescence Ex485/Em525. YopH tyrosine phosphatase [Yersinia enterocolitica]. inhibition, %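 (about 10 µM by stock and volumes)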. 140,000 compounds, 0.16% hits;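 active = inhibition of 50% or more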;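 also: controls were vehicle for no effect and minimum signal wells for full effect; inactives centre near -20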
RecA splice inh: Mtb RecA intein splicing inhibitors, primary screen, biochemical, fluorescence, HTS | AID 2221, 2009 | inhibition, %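 (about 9 µM by stock and volumes)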 | cell-free RecA intein splicing | 290,000 compounds, 0.75% hits | Protein RecA (Mycobacterium tuberculosis (strain ATCC 25618 / H37Rv)), P9WHJ3; in the data active = inhibition above about 30%; inconclusive = no clear call, values can overlap the other calls;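 also: 0% = vehicle wells and 100% = reference inhibitor control wells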
Target sequence (P9WHJ3 whole entry, looked up, canonical isoform): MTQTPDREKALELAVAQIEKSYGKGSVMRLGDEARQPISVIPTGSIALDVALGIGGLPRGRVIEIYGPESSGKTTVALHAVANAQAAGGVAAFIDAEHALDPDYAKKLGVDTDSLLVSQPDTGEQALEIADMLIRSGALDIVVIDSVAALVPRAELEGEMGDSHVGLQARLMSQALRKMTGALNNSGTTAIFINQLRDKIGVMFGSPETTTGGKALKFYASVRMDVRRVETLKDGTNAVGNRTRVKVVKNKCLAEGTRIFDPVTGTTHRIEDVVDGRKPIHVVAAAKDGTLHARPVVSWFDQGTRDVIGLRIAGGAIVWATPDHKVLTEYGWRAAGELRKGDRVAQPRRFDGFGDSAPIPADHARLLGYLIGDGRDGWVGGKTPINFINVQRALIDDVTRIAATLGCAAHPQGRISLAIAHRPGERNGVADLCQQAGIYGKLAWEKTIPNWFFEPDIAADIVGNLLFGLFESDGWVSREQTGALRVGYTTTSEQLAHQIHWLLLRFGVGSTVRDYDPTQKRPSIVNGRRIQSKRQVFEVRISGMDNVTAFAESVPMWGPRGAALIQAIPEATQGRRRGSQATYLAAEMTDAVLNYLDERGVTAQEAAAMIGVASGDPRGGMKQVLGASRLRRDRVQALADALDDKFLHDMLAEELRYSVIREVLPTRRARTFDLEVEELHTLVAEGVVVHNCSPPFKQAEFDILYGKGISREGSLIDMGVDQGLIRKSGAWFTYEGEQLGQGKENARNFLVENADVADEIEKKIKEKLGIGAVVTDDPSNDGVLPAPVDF
Arbovirus anti: antivirals against arbovirus infection, primary screen, cell-based, full library, 10K replicate subset. inhibition, % at 10 µM. arbovirus infection cell-based antiviral screen. 200,000 compounds, 0.37% hits. AID 1251, 2008;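 active = inhibition from about 30%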;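 also: bluetongue infection of BSR cells; cell survival read as ATP light after 72 h; 0% = infected wells without compound and 100% = uninfected wells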
Arbovirus anti repeat: second read-out of Arbovirus anti, no call of its own (marks repeat the call); inhibition, %; measured here: 10K subset replicate screen; many hits read low in the repeat;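 first of two repeat runs on a subset; 0% = infected and 100% = uninfected wells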
* = called active by the depositor; ? = inconclusive; nt = no result given.

SMILES	Mtb H37Rv	Mtb betalactam	YopH PTP inh	RecA splice inh	Arbovirus anti	others
O=C(NCc1cccs1)C1CC(=O)N(c2ccccc2)C1 (stereo not given)	-3%	0	-32	-3.0	8
O=C(CSc1cccc[n+]1[O-])N1CCCc2ccccc21	-2%	-2	nt	2.8	10
O=C(CN1CCCCC1)Nc1ccc(F)c(Cl)c1	-4%	-5	-39	2.3	-6	Arbovirus anti repeat=11
COc1ccc(CNC(=O)CN(c2cccc(OC)c2)S(C)(=O)=O)cc1	-5%	-1	9	-1.7	4
COc1ccccc1NC(=O)c1cccc(S(=O)(=O)N2CCOCC2)c1	-5%	-12	-41	-0.4	6	Arbovirus anti repeat=9
CC(=O)Nc1ccc(S(=O)(=O)Nc2cccc(-c3nc4cc(C)ccc4o3)c2)cc1	nt	-3	nt	-0.3	nt
C/C(CC(=O)Nc1cccc(Cl)c1Cl)=N\NC(=O)c1ccccc1C	-1%	26	nt	-2.6	-7
Cc1nnc(NC(=O)C(C)Oc2ccc3c(C)cc(=O)oc3c2)s1 (stereo not given)	-8%	-9	-12	0.8	-3
CC(C)CCn1nnnc1C(c1ccccc1)N1CCC(C(N)=O)CC1 (stereo not given)	-12%	0	-31	-0.1	7
Cn1nc(C(=O)NCc2cccs2)c2ccccc2c1=O	-4%	-2	-37	0.4	-9
CN(C)c1nc(OCCNC(=O)Nc2ccccc2)nc(N2CCOCC2)n1	nt	nt	-14	0.3	-11
CC1CCCC(NC(=O)CCS(=O)(=O)c2ccc3c(c2)NC(=O)CS3)C1C (stereo not given)	nt	1	nt	-1.5	nt
c1ccc(C(c2ccccc2)N2CCN(c3nc4ccccc4n4cnnc34)CC2)cc1	-1%	4	-31	11	-21
Cc1coc(C)c1C(=O)CC1(O)C(=O)N(Cc2ccccc2)c2ccccc21 (stereo not given)	0%	-12	-21	0.4	-6
CCOC(=O)c1[nH]c2ccc(OC)cc2c1NC(=O)C(C)N1CCC2(CC1)OCCO2 (stereo not given)	-11%	nt	8	nt	0
Cc1cc(C)c(CSc2ncnc3nc[nH]c23)c(C)c1	-5%	-6	nt	-1.8	-24
O=C(O)c1ccc(NS(=O)(=O)/C=C/c2ccccc2)cc1	5%	36	-20	-1.7	2
Nc1nnc(SCC(=O)c2ccc3c(c2)NC(=O)CO3)s1	0%	1	nt	3.4	-3
CCC(=O)Nc1sc2c(c1C#N)CC(C)(CC)OC2 (stereo not given)	-9%	-9	-106	-0.4	1
CC(C)(C)C(=O)Nc1nc(NC(=O)C(C)(C)C)nc(-c2ccccc2Cl)n1	-1%	1	nt	1.0	nt
O=C(CC1SC(=Nc2ccc(O)cc2)NC1=O)Nc1ccccc1 (stereo not given)	-5%	2	nt	2.3	nt
CN1CCc2c(sc3nc(SCC(=O)N4CCOCC4)n(-c4ccc(Cl)cc4)c(=O)c23)C1	nt	2	nt	11	nt
O=C(c1ccc(Cl)cc1)N1CCN(c2ncccn2)CC1	nt	2	nt	-2.2	nt
CCCN(C(=O)c1ccco1)c1nnc(-c2cccc(C)c2)s1	0%	-5	nt	4.6	-11
CCOC(=O)c1cc2sccc2n1CCCN1C(=O)c2ccccc2C1=O	7%	13	1	7.4	1

Following part.
SMILES	Mtb H37Rv	Mtb betalactam	YopH PTP inh	RecA splice inh	Arbovirus anti	others
CC1CCN(CCCCOc2ccccc2F)CC1	nt	0	nt	-1.3	nt
COc1ccc(-c2nsc(SCC(=O)NCC3CCCO3)n2)cc1 (stereo not given)	2.3µM*	100	nt	1.3	4
COC(C(=O)Nc1cccc([N+](=O)[O-])c1)c1ccccc1 (stereo not given)	-7%	-7	nt	-1.3	0
CCSC1=C(C#N)C(c2ccc(C)o2)CC(=O)N1 (stereo not given)	-3%	4	nt	2.6	nt
OCC[C@H]1C[C@H](O)[C@@H](O)[C@]2(CCCO2)O1	-5%	1	nt	-0.5	nt
O=C(NN1C(=O)/C(=C/c2ccc(O)c(O)c2)SC1=S)c1ccccc1	nt	-2	nt	-1.3	nt
Cc1ccc(-n2ncc3c2CCCC3NC(=O)c2csnn2)cc1C (stereo not given)	nt	?	nt	4.8	nt
Cc1noc(C)c1S(=O)(=O)Nc1ccc(C(=O)N2CCC(C)CC2)cc1	2%	9	nt	-2.6	3
CCc1ccc(C)[n+](CC(=O)c2cccs2)c1	nt	0	nt	-0.8	nt
O=C(COc1ccc(Cl)cc1Cl)Nc1ccccn1	32%	93	-22	nt	-11
Cc1cc(C)cc(COc2ccc3c(C)c(CC(=O)O)c(=O)oc3c2C)c1	nt	0	nt	4.2	nt
O=C1CCCC(O)=C1C=Nc1ccc(O)cc1	4%	8	-27	-7.1	-17
O=C(Nc1nnc(CCN2CCCCC2)s1)c1ccccc1	3%	-6	nt	-2.2	-2
CCC1CCCCN1S(=O)(=O)c1ccc(NC(=O)C2CCCO2)cc1 (stereo not given)	nt	0	nt	1.4	nt
CC1(CC(=O)N/N=C/c2ccc(-c3ccc(C(=O)O)cc3)o2)OCCO1	-4%	6	-19	-0.7	2
C=CCn1c(SCc2nc3sc(C(=O)O)c(C)c3c(=O)[nH]2)nnc1-c1ccccc1	4%	-1	nt	-2.2	8
CCCOc1ccc(/C=C2\SC(N)=NC2=O)cc1OC	nt	20	nt	-0.6	nt
COc1ccc(NC(=O)c2ccc(NC(=O)C(C)C)cc2)c([N+](=O)[O-])c1	5%	13	-21	-1.1	-9
CC(C)NC(=O)C(c1ccc(F)cc1)N(C(=O)CCC(=O)Nc1ccccn1)C1CCCC1 (stereo not given)	nt	-10	nt	-2.3	nt
CN(CCn1ccnc1)Cc1cn(Cc2ccccc2)nc1-c1ccc2c(c1)OCO2	4%	1	nt	0.3	nt
Cc1noc(C)c1C(=O)NCCc1ccc(S(N)(=O)=O)cc1	nt	-13	nt	-2.7	nt
CCOCCn1c(-c2ccccc2)nc2ccccc21	nt	0	nt	3.4	nt
COC(=O)c1sccc1NC(=O)c1ccc(C#N)cc1	nt	-8	nt	14	nt
O=C(NC1CCSc2ccccc21)c1ccccc1Cl (stereo not given)	nt	44	nt	6.2	nt
CCCCCCNCc1ccc(Br)cc1	12%	-6	-12	-0.4	7

Structures listed so far containing a halogen:
SMILES	Mtb H37Rv	Mtb betalactam	YopH PTP inh	RecA splice inh	Arbovirus anti	others
O=C(CN1CCCCC1)Nc1ccc(F)c(Cl)c1	-4%	-5	-39	2.3	-6	Arbovirus anti repeat=11
C/C(CC(=O)Nc1cccc(Cl)c1Cl)=N\NC(=O)c1ccccc1C	-1%	26	nt	-2.6	-7
CC(C)(C)C(=O)Nc1nc(NC(=O)C(C)(C)C)nc(-c2ccccc2Cl)n1	-1%	1	nt	1.0	nt
CN1CCc2c(sc3nc(SCC(=O)N4CCOCC4)n(-c4ccc(Cl)cc4)c(=O)c23)C1	nt	2	nt	11	nt
O=C(c1ccc(Cl)cc1)N1CCN(c2ncccn2)CC1	nt	2	nt	-2.2	nt
CC1CCN(CCCCOc2ccccc2F)CC1	nt	0	nt	-1.3	nt
O=C(COc1ccc(Cl)cc1Cl)Nc1ccccn1	32%	93	-22	nt	-11
CC(C)NC(=O)C(c1ccc(F)cc1)N(C(=O)CCC(=O)Nc1ccccn1)C1CCCC1 (stereo not given)	nt	-10	nt	-2.3	nt
O=C(NC1CCSc2ccccc21)c1ccccc1Cl (stereo not given)	nt	44	nt	6.2	nt
CCCCCCNCc1ccc(Br)cc1	12%	-6	-12	-0.4	7

Retrieved by structure from the list above (four):
SMILES	Mtb H37Rv	Mtb betalactam	YopH PTP inh	RecA splice inh	Arbovirus anti	others
CCSC1=C(C#N)C(c2ccc(C)o2)CC(=O)N1 (stereo not given)	-3%	4	nt	2.6	nt
CCC1CCCCN1S(=O)(=O)c1ccc(NC(=O)C2CCCO2)cc1 (stereo not given)	nt	0	nt	1.4	nt
CC1(CC(=O)N/N=C/c2ccc(-c3ccc(C(=O)O)cc3)o2)OCCO1	-4%	6	-19	-0.7	2
COC(=O)c1sccc1NC(=O)c1ccc(C#N)cc1	nt	-8	nt	14	nt

Further structures:
SMILES	Mtb H37Rv	Mtb betalactam	YopH PTP inh	RecA splice inh	Arbovirus anti	others
CN(Cc1ccccc1)c1ccc(N2C(=O)CCCC2=O)cc1[N+](=O)[O-]	1%	-4	-38	-2.8	-3
CN(Cc1cccc(F)c1)C(=O)CNS(=O)(=O)c1ccc2ccccc2c1	nt	-2	nt	-2.6	nt
CC(O)CNc1ccc([N+](=O)[O-])c2cccnc12 (stereo not given)	2%	-5	0	4.5	8
C[C@H]1CC[C@]2(O[C@@H](CCO)C[C@@H](O)[C@@H]2O)O1	-9%	-1	nt	-3.2	nt
COc1ccccc1OCCn1c(=O)oc2ccc(C)cc21	8%	0	nt	-0.6	23
CC(C)NC(=O)C(OC(=O)c1ccccc1)C(OC(=O)c1ccccc1)C(=O)O (stereo not given)	-11%	?	-23	-0.9	9
COc1ccc(-c2nc(N)ncc2-c2csc(C)n2)c(O)c1OC	7%	-2	nt	-0.9	1
O=S(=O)(NC12CC3CC(CC(C3)C1)C2)c1ccc(F)cc1	-4%	9	2	nt	3
Cc1ccc(S(=O)(=O)NCc2cc(=O)n(C)c(=O)n2C)cc1C	nt	-8	nt	-1.6	nt
COc1ccc(CN(C)CC(=O)NC(C)c2ccccc2)c(OC)c1 (stereo not given)	4%	-8	nt	-0.4	-3
COC(=O)c1cc(C#N)c(Oc2ccccc2)nc1C	3%	-4	-17	-0.9	nt
CCCOc1ccc(N2C(=O)CC(NCCNc3ccc(S(=O)(=O)CC)cc3)C2=O)cc1 (stereo not given)	2%	3	13	-0.2	4
CCN1CCN(c2ccc(N=Cc3ccc(O)cc3O)cc2)CC1	-3%	-3	nt	-3.8	-22
CCN(CC)CCN1C(=O)C(O)=C(C(=O)c2ccco2)C1c1ccccn1 (stereo not given)	-19%	-2	10	-1.8	5
COc1cc2c(cc1OC)CN(C(=O)C1(c3ccccc3)CC1)CC2	-9%	3	-32	5.3	3
CCc1ccc2[nH]c3nc(C)cc(C)c3c(=O)c2c1	6%	11	-23	-36	-8
Cc1ccnc(SCCn2c(N3CCN(C)CC3)nc3c2c(=O)n(C)c(=O)n3C)n1	-7%	-11	nt	1.0	nt
COCCNC(=O)C(c1ccc(C)cc1)N(Cc1ccco1)C(=O)CCC(=O)Nc1ccccn1 (stereo not given)	nt	-5	nt	-3.8	nt
O=C(Nc1ccc(F)cc1)c1ccc(CN2CCc3ccccc3C2)cc1	nt	-6	nt	1.4	nt
CCOc1ccc(NC(=O)NCc2cccn2C)cc1	nt	1	nt	0.2	nt
O=C(CCCCl)NC1=NN(c2ccccc2)C(=O)C1	40%	-4	-24	nt	-40
O=C(NCCCN1CCCC1=O)Nc1ccc(Cl)cc1Cl	nt	-16	nt	-2.0	nt
CC1CSc2ccccc2NC1=S (stereo not given)	-10%	11	0	-8.5	3
C=CCn1c(=O)c2ccccc2n2nnc(C(=O)OCC)c12	-4%	9	nt	2.3	nt
Cc1ccc(NC(=O)COC(=O)c2ccc([N+](=O)[O-])s2)c(C)c1	9%	95	-29	-1.4	-1
COc1ccc(Cl)c2sc(N(CCN(C)C)C(=O)CCS(=O)(=O)c3ccc(C)cc3)nc12	nt	-10	nt	-0.6	nt

A portion of the library (hit frequency here may not be typical).
